ALR inh – human ALR oxidase inhibition via reduced H2O2; 290,000 compounds, 3.8% hits; AID 485317; P55789; inhibition, % (no concentration beside the values); purified ALR, DTT oxidation, H2O2 HRP-luminol luminescence;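 active means mean and each replicate at 75% or more; inconclusive means only one of the two met; inactive means neither met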;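 further: stock transfer was 7.5 nL into about 7.5 µL; 0% = neutral wells and 100% = wells with inactivated enzyme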
Target sequence (P55789 whole entry, looked up): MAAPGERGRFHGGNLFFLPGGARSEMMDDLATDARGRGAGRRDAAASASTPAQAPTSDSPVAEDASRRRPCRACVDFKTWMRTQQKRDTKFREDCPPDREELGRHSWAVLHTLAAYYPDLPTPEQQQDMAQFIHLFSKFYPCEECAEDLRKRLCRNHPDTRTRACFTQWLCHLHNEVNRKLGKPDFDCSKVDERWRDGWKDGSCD
MLL AF4-AF9 inh – blocks AF4 peptide binding to human AF9; AID 651704; AlphaScreen, biotin-AF4 peptide binding to FLAG-AF9; 350,000 compounds, 0.47% hits; inhibition, % at 10 µM;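 active means every replicate reaching a set inhibition limit, whatever the replicate mean, cut at about 25% in these data; inconclusive means mean inhibition reaches that limit but some replicates miss it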;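 further: 0% = plate neutral control median and 100% = total signal loss; the record names both 10 and 1 µM as test concentration; the first replicate is given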
Target sequence (P42568 whole entry, looked up): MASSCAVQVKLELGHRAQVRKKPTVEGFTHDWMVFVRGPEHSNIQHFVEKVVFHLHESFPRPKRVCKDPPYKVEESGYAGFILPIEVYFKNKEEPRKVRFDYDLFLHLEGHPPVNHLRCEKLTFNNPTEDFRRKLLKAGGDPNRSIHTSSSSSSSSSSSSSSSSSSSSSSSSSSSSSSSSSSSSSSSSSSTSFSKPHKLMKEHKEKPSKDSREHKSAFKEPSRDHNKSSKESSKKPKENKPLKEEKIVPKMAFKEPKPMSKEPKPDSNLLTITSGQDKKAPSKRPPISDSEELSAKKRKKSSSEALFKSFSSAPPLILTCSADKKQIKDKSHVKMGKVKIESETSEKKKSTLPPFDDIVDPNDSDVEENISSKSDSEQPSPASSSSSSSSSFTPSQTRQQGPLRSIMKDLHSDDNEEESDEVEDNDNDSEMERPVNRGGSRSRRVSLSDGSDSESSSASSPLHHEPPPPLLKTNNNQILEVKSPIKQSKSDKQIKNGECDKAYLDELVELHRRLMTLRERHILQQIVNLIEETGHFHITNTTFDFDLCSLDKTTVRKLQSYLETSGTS
Ecoli growth – E. coli growth inhibition; Escherichia coli growth, OD600, 23 h; stronger effect = lower value; OD600 absorbance (test concentration not listed); 330,000 compounds, 0.21% hits; AID 1053175;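 active means OD600 absorbance below the run mean of sample wells minus 3.6 SD, in any replicate, cut at about 0.56 in these data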;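 further: stock transfer was 300 nL into about 60 µL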
Vif TR-FRET – inhibitors of Vif binding to APOBEC3G peptide, primary screen, biochemical, TR-FRET, GST-Vif 1-94, biotin-A3G peptide, dose response retest (AID 1117319); TR-FRET GST-Vif / biotin-A3G peptide binding; higher % means a stronger effect; test concentration not given here; strong numbers were not always called active; inhibition, %, or IC50 in µM where a hit was titrated; 260,000 compounds, 0.57% hits;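 active means above the screen mean plus three standard deviations and confirmed in dose response; inconclusive means results disagree or hit not tested in dose response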;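 further: Vif residues 1-94 fused to GST binding biotinylated APOBEC3G peptide 110-148; 0% = full assay without inhibitor and 100% = GST in place of GST-Vif; retest series ran down from 100 µM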
FGF22 binding – binders of recombinant human FGF22 by thermal shift. Q9HCT0. SYPRO orange fluorescence; percent of sucrose octasulfate shift, DMSO zero. calls only at 9.99 µM. 340,000 compounds, 1.5% hits. AID 651658;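 active means melting point raised past a set limit in the mean and every replicate; inconclusive means no clear call; three in four hits are not shown here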
Target sequence (Q9HCT0 whole entry, looked up): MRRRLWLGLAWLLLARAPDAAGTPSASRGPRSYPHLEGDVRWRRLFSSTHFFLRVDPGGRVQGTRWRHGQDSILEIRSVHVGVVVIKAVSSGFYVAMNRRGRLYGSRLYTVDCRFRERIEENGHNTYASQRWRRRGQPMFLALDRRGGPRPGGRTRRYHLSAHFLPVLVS
rRNA inh HTS – selective bacterial rRNA inhibition in E. coli; E. coli WT GFP vs humanized-ribosome RFP mutants, fluorescence, 24 h; stronger effect = lower value; DMSO median 0, no signal -100; GFP signal change (wild-type ribosome), % (test concentration not listed); 350,000 compounds, 1.6% hits;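 active means significant combined selectivity score with lowered wild-type GFP, culture density cut under 30%, mutant RFP and density less affected; inactive means any of these conditions unmet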; further: one replicate is shown; some compounds called inactive have numbers as strong as hits
HNF4A DNA FP – change in binding of human HNF4 alpha to DNA; HNF4a-FITC DNA binding, fluorescence polarization, 1 h; activity change, % at 10 µM; 360,000 compounds, 0.3% hits; AID 1224865; in the data active means activity change above about 30%, passing the limit was not always enough;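 further: controls were the assay level and a saturating level of protein; the project sought stronger binding though the title names inhibitors; some compounds called inactive have numbers as strong as hits; positive values seem to mean higher polarization but the record does not say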
rRNA inh HTS OD600 – second read-out of rRNA inh HTS, no call of its own (marks repeat the call); OD600 change, %; measured here: OD600 growth;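 optical density of the mix in the first replicate; 0 = DMSO median and -100 = no signal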
rRNA inh HTS RFP – second read-out of rRNA inh HTS, no call of its own (marks repeat the call); RFP signal change, %; measured here: RFP humanized mutant strains;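 first replicate; 0 = DMSO median and -100 = no signal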
* = called active by the depositor; i = inactive; ? = inconclusive; / = not tested or not shown.

SMILES	ALR inh	MLL AF4-AF9 inh	Ecoli growth	Vif TR-FRET	FGF22 binding	rRNA inh HTS	rRNA inh HTS OD600	rRNA inh HTS RFP	HNF4A DNA FP
O=C(NCC[C@@H]1CC[C@@H](NC(=O)c2cnccn2)[C@H](CO)O1)Nc1ccc(F)cc1	/	12.0	/	/	i	-0.5	2.4	0.8	/
CCOc1cccc(-c2nnc(SCC(=O)Nc3cc(OC)cc(OC)c3)n2N)c1	0.7	/	0.656	-15.7%	/	/	/	/	-5.9
Cc1ccc(C(=O)C[n+]2ccccc2C)cc1[N+](=O)[O-]	-2.7	-4.3	0.682	/	i	8.2	9.3	0.8	-1.0
CCCCn1c(=O)[nH]c(=O)c2c(C(=O)OCC)cc(-c3cccs3)nc21	-0.8	-3.0	0.71	-21.3%	i	7.4	0.7	-7.9	2.4
CCC(=O)N1C[C@H](C)[C@@H](OC)CN(C)C(=O)c2cc(NC(=O)Nc3ccccc3)ccc2OC[C@@H]1C	/	-1.1	/	/	i	1.9	1.7	1.1	/
CN(C)C(=O)C1CC(=O)OC12CCCCC2 (stereo not drawn)	-1.3	-0.7	0.646	-2.4%	i	8.5	12.3	-1.1	4.8
N#C/C(=C/c1ccc(C(=O)O)cc1)C(=O)Nc1ccccc1	11.8	-2.3	0.713	12.6%	i	-3.5	1.5	-1.4	1.6
COc1ccccc1C(=O)N1CCN(C(=O)Cc2ccccc2)CC1	/	-2.8	0.706	/	i	4.5	12.6	-0.8	-1.3
COc1cc(CN2CC(=O)N(c3ccccc3Cl)C2=S)cc(OC)c1OC	-3.3	-0.4	0.661	-5.1%	i	-18.1*	-4.7*	4.5*	-1.1
O=[N+]([O-])c1ccc2nc(NCCCO)nc(-c3ccccc3)c2c1	-30.5	/	0.681	6.2%	/	/	/	/	4.7
CC(=O)NC(c1ccccc1)c1nc(-c2cccc(CO)c2)cs1 (stereo not drawn)	/	2.0	/	/	i	16.8	12.9	5.3	0.5
Cc1ccc(C(=O)Nc2cccc(C(=O)N3CCOCC3)c2)cc1Cl	2.6	-1.2	0.686	-7.2%	i	-11.0	-11.9	0.7	3.9
COc1cc(CC(=O)Nc2ccc3c(c2)CCC3)cc(OC)c1OC	/	/	0.694	4.3%	/	/	/	/	-3.3
CC1CCCN(C(=O)c2ccc(COc3ccccc3Br)cc2)C1 (stereo not drawn)	-10.4	/	0.723	?	/	/	/	/	-0.8
N#Cc1c(C(F)(F)F)cc(C2CC2)[nH]c1=O	-19.2	3.9	0.699	0.8%	i	3.7	10.7	4.9	-1.1
O=C(CCN1CCCCO1)N1CCCC(Nc2ccc(F)c(F)c2)C1 (stereo not drawn)	23.3	-3.7	0.72	/	i	2.5	2.5	-2.1	-0.2
Cc1ccc(NC(=O)C2CCCN2S(=O)(=O)c2ccc3c(c2)n(C)c(=O)c(=O)n3C)cc1 (stereo not drawn)	-12.7	5.1	0.623	-24.5%	i	11.2	9.1	-7.1	0.8
OCCOCCn1c(C(CO)Nc2nc(-c3ccc(F)cc3)cs2)nc2ccccc21 (stereo not drawn)	7.6	-0.9	0.722	/	i	1.3	12.1	3.4	-0.8
CN(C)c1ccc(-c2nn3c(C4CCCCC4)nnc3s2)cc1	-0.9	/	0.748	0.3%	/	/	/	/	3.3
C[C@@H]1CN([C@H](C)CO)C(=O)c2cc(C#Cc3ccncc3)cnc2O[C@H]1CN(C)C(=O)CN(C)C	/	-7.5	/	/	i	2.9	7.8	0.5	/
Cc1cc(NC(=O)c2ccc(NC(=O)C(C)C)cc2)no1	-4.9	/	0.676	-1.2%	/	/	/	/	0.0
Cc1cccc(C(=O)N[C@H](C(=O)NCCc2ccc(S(N)(=O)=O)cc2)C(C)C)c1	/	0.8	0.668	/	i	7.0	8.6	-0.1	-3.2
COCCNC(=O)C1CCCN(Cc2ccc(C)cc2)CC1 (stereo not drawn)	/	0.9	/	/	i	11.9	23.8	4.7	0.8
Cc1ccc(S(=O)(=O)N(C)c2ccc(OC(C)C(=O)N3CCCC3)cc2)cc1C (stereo not drawn)	0.6	?	0.676	/	i	-7.5	-5.6	0.1	1.1
CCOC(=O)C1(Cc2cccc(F)c2)CCN(C2CCOCC2)CC1	/	-14.1	0.691	9.8%	i	14.4	15.3	0.2	-1.4
O=C(COc1ccc(-c2ccccc2)cc1)N/N=C/c1cccnc1	-4.2	-0.4	/	-3.3%	i	-4.1	-6.0	-1.1	-0.6
Cc1c(-c2ccc(OCCN3CCOCC3)cc2)c(=O)oc2ccc3ccccc3c12	/	-2.7	/	1.0%	i	1.6	4.0	-3.3	0.6
N/C(Cc1ccc([N+](=O)[O-])cc1)=N\OC(=O)C(c1ccccc1)c1ccccc1	-0.6	/	/	-2.4%	/	/	/	/	0.3
CO[C@H](CN(C)C(=O)c1ccc2c(c1)OCO2)[C@H](C)CN([C@@H](C)CO)S(=O)(=O)c1ccc(F)cc1	/	-0.6	/	/	i	2.6	7.2	-4.1	/
Cc1noc(C)c1NC(=O)N(C)C[C@@H]1Oc2ccc(NC(=O)NC3CCCCC3)cc2C(=O)N([C@@H](C)CO)C[C@@H]1C	/	-3.4	/	/	i	0.6	4.2	0.6	/
S=C1NC[C@H](CC2CCCCC2)N1CC1CCCCC1	/	4.3	/	28.9%	i	-28.2	-39.1	23.1	-5.5
COc1ccc(CN2C(=NC(=O)C3CCCCC3)SC3CS(=O)(=O)CC32)cc1 (stereo not drawn)	-2.9	1.3	0.658	1.0%	i	0.7	18.2	-1.0	2.0
C[C@H](CO)N1C[C@H](C)[C@H](CN(C)C(=O)c2ccccc2)OCCCC[C@H](C)Oc2ccc(NC(=O)Nc3cccc4ccccc34)cc2C1=O	/	-2.7	/	/	i	-4.8	1.3	-0.7	/
Cc1ccccc1Sc1ncnc2onc(C)c12	-3.5	/	0.74	6.5%	/	/	/	/	-3.7
Cc1ccc(S(=O)(=O)N2CCN(C(=O)CC(C)n3cncn3)CC2)cc1C (stereo not drawn)	2.7	-7.1	0.659	/	i	0.1	14.2	0.3	3.8
CCOC(=O)C1(C)CCCN1C(=O)c1ccc(F)c(Cl)c1 (stereo not drawn)	/	-1.2	/	/	i	8.1	10.5	-0.5	-1.3
O=C(c1cccc(S(=O)(=O)Nc2ccc(Br)cc2)c1)N1CCCC1	0.2	2.5	0.67	3.0%	i	-8.0	-16.5	0.4	0.5
O=C(O)c1n[nH]c2c1CCCCC2	6.1	/	0.702	9.9%	/	/	/	/	2.4
CCc1nc(N)nc(N)c1-c1ccc(N(C)Cc2ccccc2)c([N+](=O)[O-])c1	/	-1.9	/	3.6%	i	-32.7	-45.1	-13.3	-7.0
COc1cccc(/C=C(/C(=O)OCC(N)=O)c2ccccc2)c1	0.6	0.6	0.638	/	i	-5.6	-3.5	0.4	0.6
NC(=O)c1ccc(N=Cc2c(O)ccc3ccccc23)cc1	-31.7	0.7	/	/	i	5.6	-11.3	1.6	8.4
CN1C(=O)c2cc(NC(=O)NC3CCCC3)ccc2OC[C@H]2O[C@H](CC(=O)O)CC[C@H]21	/	-2.5	/	/	i	0.6	0.7	0.0	/
C[C@H](CO)N1C[C@H](C)[C@H](CN(C)C)Oc2ccc(NS(=O)(=O)c3cn(C)cn3)cc2CC1=O	/	-0.7	/	/	i	2.0	12.1	3.6	/
CNC[C@@H]1Oc2c(NC(=O)c3ccncc3)cccc2C(=O)N([C@@H](C)CO)C[C@@H]1C	/	1.5	/	/	i	0.4	-2.0	-1.7	/
Cc1ccc(/C=N/NC(=O)CSc2nc3ccccc3n2C)s1	88.6*	/	/	9.4%	/	/	/	/	-2.3
COc1ccc2nc(NCCNC(=S)NCCCN3CCOCC3)c(C#N)cc2c1	-41.3	-4.7	0.688	-2.5%	i	12.8	2.3	1.5	-2.7
O=C(Nc1cccn(Cc2ccc(F)cc2)c1=O)NC1CCCCC1	-32.7	/	0.715	-2.0%	/	/	/	/	4.1
O=C(Nc1nnc(-c2cccnc2)o1)c1ccccc1Cl	/	0.9	0.696	1.4%	i	3.7	7.6	0.3	-5.0
COC(=O)c1ccc(OCCCCN2CC(C)OC(C)C2)cc1 (stereo not drawn)	-12.0	-6.0	0.728	-15.6%	i	-3.5	-4.6	-5.2	0.4
Cn1c(=O)c2cc(NC(=O)CCc3ccc(O)cc3)ccc2n1Cc1cccc(C(F)(F)F)c1	/	-4.0	/	/	i	-10.2	-9.9	-2.5	3.2
The results go on.
SMILES	ALR inh	MLL AF4-AF9 inh	Ecoli growth	Vif TR-FRET	FGF22 binding	rRNA inh HTS	rRNA inh HTS OD600	rRNA inh HTS RFP	HNF4A DNA FP
C=CCNC(=O)CCCOc1cc(C)ccc1C	-0.6	-22.0	0.763	2.1%	i	-1.9	-8.8	-4.4	-0.6
COc1ccc(/C(C)=N/N=C(N)N)c(O)c1	17.6	-7.3	/	/	i	5.2	7.8	1.6	0.6
FC(F)(F)c1ccc2c(c1)nc1n2CCCC1	0.2	/	0.693	-7.9%	/	/	/	/	-2.2
O=S(=O)(NCC[C@@H]1CC[C@H](NS(=O)(=O)c2cccc(Cl)c2)[C@@H](CO)O1)c1cccc(F)c1	/	0.7	/	/	i	-5.4	-10.7	1.8	/
C=CCn1c(=NC(=O)c2cc(-c3cccs3)nc3ccccc23)sc2cc(S(N)(=O)=O)ccc21	0.3	0.3	0.708	-10.6%	i	-0.8	4.2	-5.0	2.7
CC(C)(O)c1nnn(-c2ccccc2)c1C(F)(F)F	-0.7	/	0.689	-1.7%	/	/	/	/	-2.9
CO[C@H]1CN(C)C(=O)c2cc(NC(=O)Nc3ccc4c(c3)OCO4)ccc2OC[C@H](C)NC[C@H]1C	/	4.2	/	/	i	5.3	4.2	-2.1	/
C[C@@H]1CN([C@@H](C)CO)C(=O)Cc2cc(NC(=O)Nc3ccc(F)cc3)ccc2O[C@H]1CN(C)Cc1ccccc1	/	6.5	/	/	i	-21.2	-54.2	16.0	/
CCCOc1cc(NCc2ccccc2)c2ncn(C(C)C)c2c1	41.4	-11.9	0.648	/	i	-45.0	-69.4	-2.3	-6.5
CCOc1ccc2[nH]c(=S)[nH]c2c1	/	/	0.779	0.9%	/	/	/	/	4.1
COc1ccc(CCNCC(=O)Nc2ccc(C)c(Br)c2)cc1OC	-21.0	3.9	0.677	/	i	-9.8	-9.1	6.7	0.4
N#Cc1ccccc1NC(=O)c1ccc2c(Cl)c3c(nc2c1)CCCC3	5.9	/	0.688	6.9%	/	/	/	/	1.7
Cc1ccc(CNC(=O)Cn2cnc3c(NCc4ccccc4)ncnc32)o1	/	-2.0	0.686	-5.4%	i	10.0	13.0	0.6	-1.6
C=CCN(C(=O)CNC(=O)c1ccco1)C(C(=O)NC1CCCCC1)c1ccc(F)cc1 (stereo not drawn)	-3.6	/	0.657	-3.0%	/	/	/	/	-0.5
CCN1CC2CCCC3(C1)C(=O)NC1(CCCCC1)N=C23 (stereo not drawn)	-6.6	/	0.698	0.3%	/	/	/	/	-0.1
COCCCNC(=S)N1CCN(c2ccc([N+](=O)[O-])cc2)CC1	46.0	/	0.68	/	/	/	/	/	1.7
CCCCCCCNc1nc(Cl)nc(NCCO)n1	2.2	-0.4	0.687	-10.6%	i	-16.9	-15.6	-2.3	1.3
C=CCOc1cccc(CNn2cn[nH]c2=S)c1	-10.9	/	0.689	8.8%	/	/	/	/	2.0
C[C@@H]1CN([C@H](C)CO)C(=O)Cc2cc(NC(=O)CCCN(C)C)ccc2O[C@@H]1CN(C)CC1CCCCC1	/	-1.8	/	/	i	6.8	4.0	-0.5	/

Compound activity deposited in PubChem by several laboratories.

Not all compounds are listed. The share of hits here may be higher or lower than overall.
